NPYLR7 ag – activates Aedes aegypti NPYLR7 receptor | HEK293T NPYLR7/Galpha15, GCaMP6s calcium fluorescence | activation, % at 10 µM | actives 0.15% (n = 270,000); in the data active = activation above about 40%;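 note: 0% = vehicle and 100% = reference agonist at the receptor; some compounds past the cut are filed as inactive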
NPYLR7 ag max-min – recorded beside NPYLR7 ag, whose call it bears; activation, %; measured here: Max-Min RFU normalised activation; some inactives read as strong as hits;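 span of the calcium signal over five minutes; 0% = vehicle and 100% = native peptide agonist; compound fluorescence can raise it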
* marks the source's active call; other numbers are inactive results; & = joins results of further samples. An excerpt, so the mix of outcomes need not match the whole.

1) C=CCOCC(O)CN(Cc1ccc2c(c1)OCO2)Cc1cc(C)ccc1C (stereo not drawn)
2) COc1cccc(C(NC(=O)C2CCN(CCOc3ccc(F)cc3)CC2)c2ccccn2)c1 (stereo not drawn)
3) COc1cc(C(=O)C=Cc2ccc(OC(F)F)cc2)ccc1O
4) CCc1cccc2c(C(CC(=O)NCCc3ccc(Cl)cc3Cl)c3cccc(OC)c3)c[nH]c12 (stereo not drawn)
5) Cc1ccc2c(c1)c(CNC(=O)c1ccccc1C1CCNC1)nn2C (stereo not drawn)
6) Cc1cccc(C2=NOCC(=O)N2Cc2ccc(F)cc2)c1
screen / no. | 1 | 2 | 3 | 4 | 5 | 6
NPYLR7 ag max-min | 27 | -6 | -6 | 6 | 4 | 3
NPYLR7 ag | 12 | 7 | -6 | 1 | 5 | 6

7) O=C(NCc1cccnc1Oc1ccc(F)c(F)c1)[C@@H]1Cc2ccccc2N1
8) COc1ccccc1CNC(=O)COc1cccc2c1CCC=C2
9) O=C(NC1CCCCCC1)C1CCN(C(=O)c2ccc(C(F)(F)F)cc2)CC1
10) O=S(=O)(Nc1ccc2ccccc2c1)c1ccc(S(=O)(=O)N2CCCC2)cc1
11) CC(C)C(=O)N(Cc1nccn1Cc1ccccc1F)CC1CC1
12) CCCc1cc(=O)[nH]c(-n2nc(C)cc2NC(=O)Cc2cccs2)n1
screen / no. | 7 | 8 | 9 | 10 | 11 | 12
NPYLR7 ag max-min | 9 | -10 | -2 | -11 | 11 | -9
NPYLR7 ag | -2 | 0 | -3 | -7 | 7 | -7

13) Cc1nc(COC(=O)C(Oc2ccc(F)cc2F)C(C)C)no1 (stereo not drawn)
14) CN(C=CC=[N+](C)c1ccccc1)c1ccccc1
15) O=C(CC1c2ccccc2CCc2ccccc21)NCCN1CCOC1=O
16) CC(C)c1nn(-c2ccccc2)c2c1C(c1nccs1)CC(=O)N2 (stereo not drawn)
17) CN(C)CCNc1nc2ccc(Br)cc2s1
18) Cc1cccc2[nH]c(CN(C)CC3(O)CCCN(CC4CCC4)C3=O)nc12 (stereo not drawn)
screen / no. | 13 | 14 | 15 | 16 | 17 | 18
NPYLR7 ag max-min | -2 | -15 | -3 | 9 | 3 | 1
NPYLR7 ag | 1 | -6 | 2 | 22 | 3 | 2

19) O=C(NC1CCCC1)c1ccc(N2CCC(NCCC3=CCCCC3)CC2)cc1
20) NC(=O)NC1(C(F)(F)F)Oc2ccccc2O1
21) COc1cccc2cc(C(=O)Nc3ccccc3F)c(=N)oc12
22) CC(C)c1nc(CN2CC[C@@H](c3ccc4c(c3)OCO4)[C@H](O)C2)co1
23) Cc1ccccc1-n1c(C)nn(CN2CCN(c3ccccc3)CC2)c1=S
24) CCN=c1scc(-c2ccc(F)cc2)n1N=Cc1ccc(F)cc1F
screen / no. | 19 | 20 | 21 | 22 | 23 | 24
NPYLR7 ag max-min | 6 | 0 | -1 | 3 | -4 | -9
NPYLR7 ag | 17 | 1 | 1 | 1 | -4 | -7

25) COc1ccc(OCc2cc(C(=O)N(C)C(C)c3nccs3)n[nH]2)c(Cl)c1 (stereo not drawn)
26) Cc1noc(C(C)NC(=O)c2ccccc2-c2ccc(C(F)(F)F)cc2)n1 (stereo not drawn)
27) NC(=O)NCCCC(=O)OCC(=O)c1ccc(Br)s1
28) COc1cccc(CNC(=O)N2CCN(c3ncccc3C(=O)NCCc3ccc(OC)c(OC)c3)CC2)c1
29) CC(C)n1cc(C#N)c(NC(=O)c2ccncc2Cl)n1
30) COc1ccc(CCN(Cc2sccc2C)C(=O)CN(CC(C)C)C(=O)Nc2ccc(Cl)cc2Cl)cc1OC
screen / no. | 25 | 26 | 27 | 28 | 29 | 30
NPYLR7 ag max-min | 6 | -5 | -1 | 11 | -1 | 5
NPYLR7 ag | 13 | -7 | 3 | 23 | 2 | -3

31) COc1ccc(CCNc2ncnc3[nH]ncc23)cc1OC
32) O=C(c1csc(COc2ccc(Cl)cc2)n1)N1CCCC1
33) Cc1cccc(N=C2NC(=O)c3cccc([N+](=O)[O-])c32)c1
34) CN(CCCc1cnn(C)c1)C(=O)C1(c2ccccc2F)CC1
35) COc1ccc(CCNC(=O)c2cccnc2N2CCN(C(=O)c3ccc(-c4cccc(Cl)c4)s3)CC2)cc1OC
36) OCCNc1ncnc2c1oc1ccccc12
screen / no. | 31 | 32 | 33 | 34 | 35 | 36
NPYLR7 ag max-min | 3 | 10 | -5 | 1 | 1 | 6&42
NPYLR7 ag | 5 | 16 | -2 | 6 | 3 | 3&30

Whole records from above. Order of screens: NPYLR7 ag max-min	NPYLR7 ag
C=CCOCC(O)CN(Cc1ccc2c(c1)OCO2)Cc1cc(C)ccc1C (stereo not drawn) as listed: 27	12
OCCNc1ncnc2c1oc1ccccc12 as listed: 6&42	3&30
CCCc1cc(=O)[nH]c(-n2nc(C)cc2NC(=O)Cc2cccs2)n1 as listed: -9	-7
O=C(NC1CCCCCC1)C1CCN(C(=O)c2ccc(C(F)(F)F)cc2)CC1 as listed: -2	-3
COc1cccc2cc(C(=O)Nc3ccccc3F)c(=N)oc12 as listed: -1	1

(list continues)
37) CCCN1C(=O)C(c2c(CC)[nH]n(-c3cc(C)ccc3C)c2=O)=C(N2CCCCC2)C1=O
38) Cc1cccc(-n2ncc(C(=O)N3CCCCC3)c2C)c1
39) Cc1ccc(CNC(=S)NCCCn2nccc2C)cc1
40) COc1ccccc1OCC1CN(C(=O)C2(c3ccccc3)CC2)CCO1 (stereo not drawn)
41) O=C(O)CN1C(=O)/C(=C\c2ccc(OCc3ccccc3)cc2)SC1=S
42) CN1CCN(Cc2ccc3cccc(O)c3n2)CC1C(=O)O (stereo not drawn)
screen / no. | 37 | 38 | 39 | 40 | 41 | 42
NPYLR7 ag max-min | 4 | 14 | 0 | 13 | 5 | 0
NPYLR7 ag | -1 | 1 | 0 | 20 | 6 | -1

43) CSc1ccccc1C(=O)N1CCC(n2c(-c3ccccc3)nc3ccc(F)cc32)CC1
44) CNC(=O)CN(C)c1nc(-c2cccs2)nc2sc3c(c12)CCC3
45) O=C(O)COc1ccccc1/C=N\NC(=O)c1cc(-c2ccccc2)nc2ccccc12
46) CCOc1cc(C2C(=C(O)c3ccc(OC(C)C)cc3)C(=O)C(=O)N2Cc2cccnc2)ccc1O (stereo not drawn)
47) CCc1cc(Oc2ccc(F)cc2)nc(SCc2ccccc2C#N)n1
48) COc1ccc(OC)c(C2CC(c3cc(C)ccc3C)=NN2C(=O)CN2CCCC2)c1 (stereo not drawn)
screen / no. | 43 | 44 | 45 | 46 | 47 | 48
NPYLR7 ag max-min | -7 | 13 | 10 | -13 | 7 | 5
NPYLR7 ag | -5 | 18 | 13 | -13 | 0 | 3

49) COCCNC(=O)CCN(CCc1ccccc1)c1nc(-c2ccco2)nc2ccccc12
50) N#Cc1c(N=Cc2ccc(F)c(F)c2)sc2c1CCC2
51) CCn1cc(NC(=O)N2CC(C)OC(C)C2)c2ccccc21 (stereo not drawn)
52) CCc1nc2n(n1)C(=O)C(C(c1ccc(OC)cc1)N1CCN(C(C)=O)CC1)S2 (stereo not drawn)
53) Cn1nc(C(C)(C)C)cc1NC(=O)C1(C)CCN1C(=O)c1ccccc1CCc1ccccc1 (stereo not drawn)
54) COC(=O)CCc1c(C)nn(-c2ccc(C(=O)Nc3ccc(Cl)cc3)cc2)c1C
screen / no. | 49 | 50 | 51 | 52 | 53 | 54
NPYLR7 ag max-min | 22 | 3 | -3 | -7 | 9 | -5
NPYLR7 ag | 18 | 5 | 2 | 0 | 11 | 0

55) COCCN(C)C(=O)CC1(C)N=C(c2ccc(C(C)C)cc2)N(C)O1 (stereo not drawn)
56) O=S(=O)(Nc1cccnc1)c1cc(Br)ccc1Br
57) CC1(C(=O)NS(=O)(=O)c2ccc3c(c2)CCO3)CCN1C(=O)CC1CCCC1 (stereo not drawn)
58) Cc1cc(C)n(C2CCN(c3nc(CCN)nc4ccccc34)C2)n1 (stereo not drawn)
59) OC1CCN(c2ccnc(-c3ccc4c(c3)OCCO4)n2)C1 (stereo not drawn)
60) CN(Cc1cccc(Cl)c1)C(=O)CCc1nc2sc3c(c2c(=O)[nH]1)CCCC3
screen / no. | 55 | 56 | 57 | 58 | 59 | 60
NPYLR7 ag max-min | 6 | 9 | 4 | -5&2 | 3 | 8
NPYLR7 ag | 8 | -2 | 7 | -3&4 | 3 | 5

61) CC1(C)O[C@@H]2C[C@@](OCc3cccc(C(F)(F)F)c3)(C(=O)NCCN3CCCC3)CC(OCc3cccc(OC(F)(F)F)c3)[C@@H]2O1 (stereo partly drawn)
62) Fc1ccccc1-c1cnnc(N2CCN(C3CCc4ccccc4C3)CC2)n1 (stereo not drawn)
63) NC(=O)c1ccc(Cl)cc1OCC(=O)N1CCc2sccc2C1
64) CCC(=O)N1CCN(c2ncnc3c2nnn3-c2ccccc2)CC1
65) O=C(O)c1n[nH]c(=O)c2ccccc12
66) COc1ccc(CCC2CCCN(S(=O)(=O)N(C)C)C2)cc1 (stereo not drawn)
screen / no. | 61 | 62 | 63 | 64 | 65 | 66
NPYLR7 ag max-min | 6 | -2 | 3 | -22 | -1 | -8
NPYLR7 ag | 3 | 8 | 2 | -15 | 0 | -3

67) COCCCNC(=O)Nc1cn(C)c2ccccc12
68) CCS(=O)(=O)Oc1ccc(CN(C(=O)Nc2c(C)cccc2C)C(C)C)cc1
69) Nc1nnnn1/N=C\c1ccc([N+](=O)[O-])cc1
70) Cc1nn(C)c(Cl)c1CN1CCc2c([nH]c3ccccc23)C1c1nc2ccccc2n1C (stereo not drawn)
71) Cc1cccc(S(=O)(=O)N2CCN(C(=O)c3occc3C)CC2)c1
72) CCn1ccnc1CNC(=O)COc1c(C)ccc(C)c1C
screen / no. | 67 | 68 | 69 | 70 | 71 | 72
NPYLR7 ag max-min | -2 | 4 | 2 | -1 | -8 | -4
NPYLR7 ag | 3 | 8 | 3 | 2 | -5 | 3

73) COc1ccc(CNC(=O)c2cc3nc(-c4ccc(Br)cc4)cc(C(F)(F)F)n3n2)cc1
74) CCCCCCCSc1nnc(C)c(=O)[nH]1
75) CCNC(=S)N1CCC(C(NC(=O)c2ccccc2Cl)C(=O)NC(C)CC)CC1 (stereo not drawn)
76) COc1cccc(Cn2c(=O)c(C(=O)Nc3ccccc3)nn(-c3ccc(C)c(C)c3)c2=O)c1
77) O=C(COCc1ccccc1)N1CCN(c2nc(Cc3ccccc3)nc3cc(Cl)ccc23)CC1
78) O=c1[nH]c(=O)c2ccccc2o1
screen / no. | 73 | 74 | 75 | 76 | 77 | 78
NPYLR7 ag max-min | 0 | -1 | 2 | 19 | 11 | -9
NPYLR7 ag | 3 | 1 | 2 | 15 | 17 | -3

79) CC1NC(=S)N(C(Cc2ccccc2)C(=O)N2CCCC2)C1=O (stereo not drawn)
80) O=C(NN=Cc1ccccc1C(F)(F)F)c1ccncc1
81) COc1ccccc1Cn1c(C(=O)N2CCN(C(=O)CCc3ccccc3)C(C)C2)cc2ccsc21 (stereo not drawn)
82) Cc1c(C(=O)N2CCC(C)CC2)cnn1-c1cc(-c2nc(C(C)(C)C)no2)ccn1
83) O=C(c1cnn2c1NC(c1cccs1)CC2C(F)(F)F)N1CCCCC1 (stereo not drawn)
84) CN(CCCc1ccccc1)CCn1cc(C(=O)NCc2ccncc2)nn1
screen / no. | 79 | 80 | 81 | 82 | 83 | 84
NPYLR7 ag max-min | 4 | -11 | 4 | -9 | -2 | -7
NPYLR7 ag | 4 | -5 | -2 | -7 | -2 | -5

85) COC(=O)c1c(N)sc(C(=O)Nc2ccccc2OC)c1C
86) CC(C)CNC(=O)C1COC2(CCN(C(=O)Cc3ccccc3)CC2)N1C(=O)c1ccco1 (stereo not drawn)
87) CCOC(=O)C1C(=N)OC2=C(C(=O)CCC2)C1c1cccc(Cl)c1 (stereo not drawn)
88) Cc1nn(-c2ccccc2)c(N2CCN(C)CC2)c1CN(CCC(C)C)C(=O)C(C)(C)CCl
89) CCOC(=O)N1CCN(CC(=O)Nc2nnc(CC)s2)CC1
90) O=C(C1CC(Cc2cccc(F)c2)=NO1)N1CCC(C(O)c2cccs2)CC1 (stereo not drawn)
screen / no. | 85 | 86 | 87 | 88 | 89 | 90
NPYLR7 ag max-min | -11 | 4 | -5 | 12 | -10 | -3
NPYLR7 ag | -4 | 1 | -1 | 4 | -9 | 3

91) Cc1ccccc1OCCCn1c(C2CC(=O)N(Cc3ccccc3)C2)nc2ccccc21 (stereo not drawn)
92) FC(F)(F)c1ccnc(NCC2COc3ccccc3O2)n1 (stereo not drawn)
93) COc1ccc(OC)c2c1C(c1cccc(N)c1)OC1CCCCC21 (stereo not drawn)
94) Cc1nccn1-c1ccc(-c2cccc3cccnc23)nn1
95) CC(=O)NN1C(=O)/C(=C2\C(=O)N(C)c3ccccc32)SC1=S
96) CCOc1ccc(N2CCN(C(=O)Nc3cccc(Cl)c3)C(C)C2=O)cc1 (stereo not drawn)
screen / no. | 91 | 92 | 93 | 94 | 95 | 96
NPYLR7 ag max-min | -4 | -5 | -3 | -3 | -8 | 25
NPYLR7 ag | 0 | -3 | -1 | -2 | -2 | 23

97) CC(C)(C)C(=O)N1CCC(C(=O)Nc2cccc(Cl)c2Cl)CC1
98) Cc1ccsc1C(=O)Nc1cc(-c2onc3c2CCCC3)cc(C(F)(F)F)c1
99) Cc1csc(-c2ccc(C(=O)NCCN3CCCCC3)cc2)n1
100) CCc1nc(C)ccc1OCC(=O)N1C[C@H](N)C[C@H]1C(=O)NC
101) CCN(CC)CC(=O)NCc1cccnc1N(C)C
102) COc1cccc(C(CN2CCN(C(=O)c3ccc(OC)c(F)c3)CC2)OCc2ccc(C#N)cc2)c1 (stereo not drawn)
103) N#CCSc1cn(CC(=O)N2CCCCCC2)c2ccccc12
screen / no. | 97 | 98 | 99 | 100 | 101 | 102 | 103
NPYLR7 ag max-min | 0 | 5 | 5 | 0 | -2 | -2 | 4
NPYLR7 ag | 4 | -4 | 5 | 2 | 2 | 3 | 2
